Source: PubChem (National Center for Advancing Translational Sciences (NCATS))
HTT promoter inh = Primary qHTS for Identification of Small Molecule Inhibitors of Huntingtin Promoter Activity | HEK293 HTT promoter firefly luciferase reporter (activity 0% = vehicle and -100% = no light), 24 h | Potency, µM (highest dose often 57.5 µM), without a hit: at the top dose activity change, negative = inhibition, actives largely listed as inhibitors | 0.93% of 48,000 active | AID 1508623, 2021; active = well fitted inhibition curve with a large enough effect; inconclusive = small, poorly fitted or top-dose-only effect; inactive = no such curve, though single readings can be large or run the other way; also: nearly all actives have a fitted effect of over 50% in size
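Quantitative HTS used concentration series of up to 57.5 uM final on HEK293 luciferase reporter cells, 24 h at 37 degrees C. Readout was Dual-Glo firefly luminescence.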
PMP22 txn prim = Cell-based coincidence reporter assay to measure PMP22 gene transcription in S16 Pmp22-F2sN cells - Primary screen. 2% of 43,000 active. S16 Pmp22-F2sN Schwann cells (luciferase reporters placed in the Pmp22 gene), FLuc/NLuc coincidence luminescence, 24 h. Potency, µM (titrated, usually from 57.5 µM), inactives show top-dose activity change, negative = inhibition, hits mostly inhibitors; active = clear falling dose curves in both reporters; inconclusive = both reporters move, but less clearly or upward; inactive = either reporter flat; the % is the NLuc reporter signal; also: % is scaled to controls: 0 for no effect and ±100 for the full control effect; some results filed as inactive show a strong effect at the top dose
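Schwann cells carrying the coincidence reporter were exposed to library compounds for 24 h at 37C, then lysed and read for FLuc and, after quenching, NLuc luminescence on a CCD imager.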
Numbers without * were called inactive; ? = inconclusive; . = not tested or not shown; [ ] = remark or other dose. Potency is read from the fitted curve at half-maximal effect. This is a random part of the collection. Share with any hit: about 2.6%.

structure	HTT promoter inh	PMP22 txn prim
Cc1ccc(-n2ncc(C(=O)NCCCN3CCN(C)CC3)c2C2CCN(C(=O)OC(C)(C)C)CC2)cc1	2%	-18%
Cc1ccc(-n2cc(C(=O)Oc3ccc(F)cc3)c3ccccc3c2=O)cc1	-15%	-37%
Cc1ccccc1NC(=O)CN(c1ccc(Cl)cc1Cl)S(=O)(=O)c1ccccc1	?	-29%
CC(C)(C)c1ccc(OCC(=O)NCC2(N3CCOCC3)CCCCC2)cc1	?	?
Cn1ncc2c(N3CCN(c4cccc(Cl)c4)CC3)ncnc21	-20%	?
Cc1nc(C)c(-c2ccc(SCC(=O)Nc3ccc(Br)cc3)nn2)s1	?	-31%
Cc1nc(-c2ccc(F)cc2)sc1CCNC(=O)c1ccccc1	-12%	0%
Cn1c2ccccc2c2cnn(CC(=O)NCCCN3CCCCC3)c(=O)c21	7%	-28%
CN(C)c1ccc(CN(Cc2ccco2)C(=O)COc2ccc(F)cc2)cc1	?	?
COc1ccc(NCc2cc3cc4c(cc3n(CC(=O)Nc3ccc(F)cc3F)c2=O)OCO4)cc1	?	18µM*
O=C(Nc1nc2ccc(Cl)cc2s1)c1cc(=O)c2ccccc2o1	9%	-43%
CCOc1ccccc1C(=O)Nc1c(C(=O)Nc2ccc(F)cc2)oc2ccccc12	?	4.1µM*
O=C(Nc1ccc(F)cc1F)c1ccc2c(c1)CCN2S(=O)(=O)c1ccc(Cl)cc1	?	-1%
CC1CCC(NC(=O)Cn2ncc3c4ccccc4n(Cc4ccc(Cl)cc4)c3c2=O)CC1 (centres undefined)	6%	25%
Cc1ccc(CNc2nc3ccccc3c3nc(-c4cccc(C)c4)nn23)cc1	34%[activator]	7%

(continued)
structure	HTT promoter inh	PMP22 txn prim
Cc1ccc(-n2ncc3c(NCCCN4CCOCC4)ncnc32)cc1Cl	?	?
Cc1ccc(S(=O)(=O)NCCc2csc3nc(-c4ccccc4C)nn23)cc1	-20%	-24%
COc1cccc(CNC(=O)c2cc(=O)[nH]c3ccc(S(=O)(=O)N4CCCC4)cc23)c1	-14%	-23%
COc1ccc(-n2cnc3cc(C(=O)NC4CCCCCC4)ccc32)cc1	-30%	-11%
CCc1ccc(NC(=O)C2CCCN(S(=O)(=O)c3cccc4nsnc34)C2)cc1 (centres undefined)	?	?
CCc1ccc(CNC(=O)c2sc3nc[nH]c(=O)c3c2C)cc1	3%	?
COc1ccc(N2CCN(S(=O)(=O)CCNC(=O)c3c(F)cccc3Cl)CC2)cc1	-18%	-6%
COc1nccnc1NS(=O)(=O)c1ccc(N)cc1	4%	.
CCOC(=O)c1ccc(NS(=O)(=O)c2cc3c(cc2C)n(C)c(=O)c(=O)n3C)cc1	-16%	7%
COc1ccc(S(=O)(=O)N2CCCCC2)cc1C(=O)Nc1cccc(C(F)(F)F)c1	-12%	3%
Cc1ccc2c(c1)C(c1ccccc1)N(C(=O)COc1ccc(Cl)cc1Cl)CC(=O)N2 (centres undefined)	?	?
COc1ccc(-c2nc(SCC(=O)NC3CCCC3)c(-c3ccc(OC)cc3)[nH]2)cc1	-31%	-9%
CCOC(=O)N1CCc2c(sc3c2c(=O)n(Cc2ccccc2)c(=O)n3Cc2c(F)cccc2Cl)C1	-22%	-16%
CCOc1ccc(N(C(C)C(=O)NCCSc2ccc(C)cc2)S(C)(=O)=O)cc1 (centres undefined)	-29%	2%
CCOc1ccc(NC(=O)Cn2cc(S(=O)(=O)NC)c(S(=O)(=O)NC)c2)cc1	2%	-4%

Following part
structure	HTT promoter inh	PMP22 txn prim
CCOC(=O)c1cc2c(=O)n3ccccc3nc2n(CC2CCCO2)c1=NC(=O)c1ccccc1C (centres undefined)	-14%	-13%
CC(C)CCn1c(=O)c2sccc2n2c(CCCC(=O)Nc3ccc(C(C)C)cc3)nnc12	-14%	-11%
CN(C(=O)c1ccc2c(Cl)c3c(nc2c1)CCC3)c1ccccc1F	13%	?
Cc1ccc(NC(=O)Cn2nc(C)n3cccc3c2=O)c(C)c1	-6%	16%
COCCNC(=O)Cn1c(=O)n(-c2ccc(C)c(C)c2)c(=O)c2c3c(sc21)CCCCC3	-10%	3%
CCOC(=O)c1ccc(NC(=O)Nc2ccc3snnc3c2)cc1	-17%	2%
Cc1ccc2sc(N(Cc3cccnc3)C(=O)Cc3ccccc3)nc2c1C	?	-28%
COc1ccccc1NC(=O)C1=C(C)Nc2nc(SCc3ccccc3)nn2C1c1cccnc1 (centres undefined)	-14%	?
COc1cccc(N2CCN(c3ncnc4onc(-c5ccc(F)cc5)c34)CC2)c1	2%	0%
CC(=O)Nc1ccc(N(C(=O)Cn2nnc3ccccc32)C(C(=O)NCc2ccccc2)c2ccc(C)cc2)cc1 (centres undefined)	-22%	13%
COc1ccc(-c2[nH]c(-c3cccc(OC)c3)nc2SCC(=O)NC2CCCC2)cc1	?	-6%
COc1ccc(S(=O)(=O)c2c(Nc3ccc(C)cc3)sc(C(=O)c3ccc(C)cc3)c2N)cc1	?	-8%
COc1cccc(NC(=O)N2CCN(C(=O)c3nsc4ccccc34)CC2)c1	-22%	-15%
Cc1cccc(-n2ccnc2SCC(=O)Nc2cccc3ccccc23)c1C	?	?
COC(=O)c1c(NC(=O)c2nc(SCc3cccc(C)c3)ncc2Cl)sc2c1CCCC2	-8%	-15%

Brought forward from above: 2 compounds, then new ones.
structure	HTT promoter inh	PMP22 txn prim
Cc1cccc(-n2ccnc2SCC(=O)Nc2cccc3ccccc23)c1C	?	?
COC(=O)c1c(NC(=O)c2nc(SCc3cccc(C)c3)ncc2Cl)sc2c1CCCC2	-8%	-15%
CCc1nn(CC(=O)Nc2cccc(C)c2C)c(=O)c2cc3sccc3n12	-2%	-25%
O=C(NCc1ccccc1)c1cccn1-c1nnc(N2CCCC2)s1	-11%	29%
Cc1cccc(Cn2cc(S(=O)(=O)c3ccccc3)c(=O)c3cc(F)c(N4CCOCC4)cc32)c1	?	?
NC(=O)c1ncn([C@@H]2O[C@H](CO)[C@@H](O)[C@H]2O)n1	-14%	.
O=S(=O)(c1cccc(Cl)c1)n1c(/C=C/c2ccccc2Cl)nc2ccccc21	-46%	?
COc1ccc(NC(=O)C2=CC(c3ccc4c(c3)OCO4)=NS(=O)(=O)N2C)cc1	-29%	-3%
Cc1nn(CCCC(=O)NCc2ccccc2)c(=O)c2cc3sccc3n12	-10%	-29%
COc1ccc(CNC(=O)CCc2nc3cccnc3n2Cc2ccc(OC)cc2)cc1	2%	-5%
Cc1ccc(-n2nc(C(=O)N3CCN(c4ccc(F)cc4)CC3)c(=O)n(C)c2=O)cc1	-15%	-11%
Cc1cc(C)c2c(=O)cc(CSc3nnc(-c4ccccc4)n3C)[nH]c2c1	-20%	-1%
O[C@@H](COc1cccc2ncccc12)CN1CCN(C2c3ccccc3[C@@H]3[C@H](c4ccccc42)C3(F)F)CC1 (some centres undefined)	?	.
COc1ccc(CCNC(=O)c2cnn(-c3ccc(F)cc3)c2C2CCN(C(=O)OC(C)(C)C)CC2)c(OC)c1	?	?
O=c1c2c3c(sc2n(Cc2cc(=O)n4ccccc4n2)c(=O)n1-c1ccccc1)CCC3	11%	-9%
CC1CCN(CCCC(=O)c2ccc(F)cc2)CC1	-4%	.
COc1ccc(OC)c(C2CC(=O)Nc3c2c(=O)[nH]c2nc4ccccc4n32)c1 (centres undefined)	-7%	-1%

Remaining list, next part
structure	HTT promoter inh	PMP22 txn prim
COc1ccccc1CCNC(=O)Cc1c(C)c2c(cc(C)c3c(C)c(C)oc32)oc1=O	0%	11%
Cc1ccc(C(=O)Nc2ccc(-c3nc4ccccc4s3)c(O)c2)c(C)c1	55%[activator]	-53%
CCCN(CCC)c1ccc(C2N=C(N)Nc3nc4ccccc4n32)cc1 (centres undefined)	?	?
CCOC(=O)c1c(NC(=O)/C(C#N)=C/c2ccc(OC)cc2)sc2c1CCC2	-3%	-5%
Cc1nn(-c2ccccc2)c2sc(C(=O)Nc3ccccc3Br)cc12	-19%	-5%
COc1cccc(NC(=O)C2CCN(c3nnc(-n4c(C)ccc4C)s3)CC2)c1	-8%	-3%
CC(C)Oc1ccccc1C1C=C(C(=O)O)Nc2ncnn21 (centres undefined)	-21%	8%
COc1ccc(-c2c(C)nn3c(N4CCN(c5cc(Cl)ccc5C)CC4)cc(C)nc23)cc1OC	-1%	15µM*
O=C(NCc1ccccc1)c1ccc2c(c1)sc1nc(-c3ccc(F)cc3)cn12	7%	-19%
Cc1nc2nncn2c(NCc2ccc(Cl)cc2)c1C	?	?
COc1cc(C(=O)OCCCN2CCCN(CCCOC(=O)c3cc(OC)c(OC)c(OC)c3)CC2)cc(OC)c1OC	1%	.
O=C(CSc1oc(-c2ccccc2)nc1S(=O)(=O)c1ccc(Cl)cc1)c1ccccc1	-24%	-11%
Cc1ccc(-c2cn(-c3cccc(Cl)c3)c(S(=O)(=O)CC(=O)Nc3ccccc3F)n2)cc1	38%[activator]	7%
Cc1ccc2oc3c(c(=O)c2c1)C(c1ccc(F)cc1)N(c1nc(C)c(C)s1)C3=O (centres undefined)	0%	-9%
CCCSc1nc2sc3c(c2c(=O)n1-c1ccccc1)CCC(C)C3 (centres undefined)	-14%	?

Compounds from the list above containing a furan ring, fused or not:
structure	HTT promoter inh	PMP22 txn prim
CN(C)c1ccc(CN(Cc2ccco2)C(=O)COc2ccc(F)cc2)cc1	?	?
CCOc1ccccc1C(=O)Nc1c(C(=O)Nc2ccc(F)cc2)oc2ccccc12	?	4.1µM*
COc1ccccc1CCNC(=O)Cc1c(C)c2c(cc(C)c3c(C)c(C)oc32)oc1=O	0%	11%

Next section
structure	HTT promoter inh	PMP22 txn prim
CCOC(=O)CN1C(=O)N(c2ccc(C)c(C)c2)S(=O)(=O)c2ccccc21	-23%	5%
Cc1ccc(Cn2cc(C(=O)c3ccc(F)cc3)c(=O)c3cc4c(cc32)OCCO4)cc1	?	-17%
COc1ccc(NC(=O)c2cc3c([nH]c2=O)CC(c2ccccc2)CC3=O)cc1 (centres undefined)	4%	6%
CC(C)Cn1c(=O)c2sccc2n2c(CCCC(=O)NCC(C)c3ccccc3)nnc12 (centres undefined)	-21%	4%
CN1CCN(c2nc3c(S(=O)(=O)c4ccc(Cl)cc4)nnn3c3ccsc23)CC1	-3%	?
Cc1nc2cccnc2n1-c1cccc(C(=O)NCc2cccc(Cl)c2)c1	?	?
COc1cccc(-c2nnc(SCC(=O)N3CCc4ccccc43)o2)c1	-6%	22%
Cc1ccc(CNC(=O)c2c(-c3ccc(Br)cc3)noc2C)o1	?	-12%
COc1ccccc1NC(=O)C1=C(C)Nc2nc(-c3ccco3)nn2C1c1ccccc1F (centres undefined)	-20%	-22%
CCC(Sc1nnc2c3ccccc3n(C)c2n1)C(=O)Nc1nnc(C(C)C)s1 (centres undefined)	6%	?
COc1ccccc1CN1CCC(CNS(=O)(=O)c2cc(-c3onc(C)c3C)ccc2OC)CC1	-13%	?
CS(=O)(=O)N1CCc2cc(S(=O)(=O)NCc3ccccc3Cl)ccc21	-24%	-21%
CCN(C(=O)c1nn(-c2ccc(OC)c(Cl)c2)c(=O)c2c1c1ccccc1n2C)c1cccc(C(F)(F)F)c1	-19%	?
COc1ccc2c(c1)CC(C(=O)Nc1cc(OC)c(OC)c(OC)c1)CO2 (centres undefined)	-21%	15%
COc1cccc(CNC(=O)CN2C(=O)N(c3c(C)cccc3C)S(=O)(=O)c3ccccc32)c1OC	-20%	7%

Next part
structure	HTT promoter inh	PMP22 txn prim
O=C(CSc1nc(-c2ccccc2)no1)N1CCN(c2ccccc2)CC1	4%	-3%
O=C(c1ccc2c(c1)N(Cc1cccc(Cl)c1)C(=O)c1ccccc1S2(=O)=O)N1CCCC1	-39%	?
Cc1ccc(NC(=O)Cn2cc(C(=O)C3CC3)c3ccccc32)c(C)c1	9%	-12%
CCCn1cc(S(=O)(=O)c2ccccc2)c(=O)c2cc(F)c(N3CCCC3)cc21	-9%	?
Cc1cccc(C(=O)Nc2nnc(S(=O)(=O)N(C)Cc3ccco3)s2)c1	1%	8%

3 entries out of the list, ordered by length of the SMILES, rising:
structure	HTT promoter inh	PMP22 txn prim
Cc1cccc(C(=O)Nc2nnc(S(=O)(=O)N(C)Cc3ccco3)s2)c1	1%	8%
CCCn1cc(S(=O)(=O)c2ccccc2)c(=O)c2cc(F)c(N3CCCC3)cc21	-9%	?
COc1cccc(CNC(=O)CN2C(=O)N(c3c(C)cccc3C)S(=O)(=O)c3ccccc32)c1OC	-20%	7%
